# Biofilm kill mix = mixtures killing C. albicans biofilm; C. albicans biofilm persisters + clotrimazole, fluorescence viability; primary screen in compound mixtures of four per well; inhibition, % at 7.6 µM; 0.02% of 120,000 active; AID 1242;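 active means inhibition above 30.3% in the primary screen of four-compound pools, then above 30% when the compound was retested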;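 further: compounds exposed to preformed 24 h biofilms for 48 h; the number belongs to the whole pool; some results filed as inactive read as strong as hits; inactives centre near 12; 0% = biofilm with clotrimazole alone and 100% = kill control; retested singly at about 60 µM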
#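 System: C. albicans CAF4-2 wild-type biofilms; Medium: RPMI/MOPS medium, pH 7.0; Reagent: Clotrimazole, 50 µg/mL; Times: biofilm formation 24 h, compound exposure 48 h, 37 °C; Detection: 2-h Alamar Blue fluorescence, 535/590 nm excitation/emission; Evaluation: percent inhibition of biofilm viability.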
# Starred values were filed as active, the others as inactive. The list is partial; rates above refer to the full screens.
canonical_smiles | Biofilm kill mix
NC(=O)Cn1nc([N+](=O)[O-])nc1Oc1ccccc1C(=O)N1CCOCC1 | 2.9
Cc1ccccc1N1C(=O)CSC1=C(C#N)C#N | 2.2
COC(C[C@H](O)C[C@@H](O)[C@H](C)OCc1ccccc1)OC | 10.6
N#CC(Sc1ccccn1)c1ccc(Cl)cc1Cl (stereo not given) | -5.0
CCn1c(CSc2nnc(-c3ccncc3)n2C)nc2cc(C(=O)O)ccc21 | 10.4
COc1ccccc1/C=C/C(=O)Nc1ccc2c(c1)OCCO2 | 18.4
CCOc1ccc(C(=O)Nc2c3c(nn2-c2cccc(Cl)c2)CS(=O)C3)cc1 (stereo not given) | 6.4
CCOC(=O)Cn1cnc(-c2ccc([N+](=O)[O-])cc2)c1 | 24.0
NCCCC[C@H](N)c1nnc([C@H](CC(=O)O)NC(=O)C2CCNCC2)o1 | 19.6
CCOC(=O)NC(C)N1C(=O)C2C3C=CC(C3)C2C1=O (stereo not given) | 14.3
Cc1cc(N2C(=O)C3CCC(c4ccccc4)CC3C2=O)no1 (stereo not given) | 13.8
CCOC(=O)c1cnc2ccc(OCC)cc2c1NCCN1CCOCC1 | 5.7
O=C1N=NC2=C1c1c3ccccc3c(O)n1CC2 | 6.0
CN(C(=O)Nc1cnccc1C(F)(F)F)C1CCCCC1 | 11.1
Cc1c(O)c2c3c(cccc3c1O)C(=O)N(c1ccccc1)C2=O | 17.1
O=C(COc1nc2ccccc2nc1N1CCOCC1)NCC(F)(F)F | -5.8
CC(C)C(C)(C#N)NC(=O)CSc1nncn1-c1ccccc1 (stereo not given) | 15.9
COc1ccc(CC(=O)OCC(=O)NCc2ccccc2Cl)cc1OC | 6.2
CCCCNC(=O)COC(=O)c1ccc(NC(C)=O)cc1 | 1.7
COc1ccc(N2CC(C(=O)N/N=C/c3ccccc3)CC2=O)cc1 (stereo not given) | 9.6
CCc1cccc2c(-c3csc(=NC)n3C)c[nH]c12 | 8.4
O=C(NC(=S)Nc1ccc(S(=O)(=O)Nc2nccs2)cc1)c1ccccc1 | 17.0
CCCCN1C(=O)/C(=C(/C#N)C(=O)N2CCCC2)c2ccccc21 | 19.8
O=C(COC(=O)c1ccco1)Nc1nc2ccc([N+](=O)[O-])cc2s1 | 16.9
N[C@@H](CO)c1nnc([C@H](CCC(=O)O)NC(=O)C2CCNCC2)o1 | 16.6
Cc1ccc(Cc2c(C)[nH]c(=S)[nH]c2=O)cc1 | 12.2
C/C(=N\N1CCN(c2ccccc2)CC1)c1ccco1 | 19.5
Cc1ccc(NC(=O)C[n+]2cc(-c3ccccc3)n3c2CCC3)c(C)c1 | 23.8
COc1ccc(CC(=O)Nc2nc(C)cs2)cc1 | -6.5
Cc1nc(C)c(C(=O)N/N=C/c2ccco2)s1 | 1.3
CCN(CC)c1ccc(S(=O)(=O)N2CCOCC2)cc1NC(=O)CN1CCN(Cc2ccccc2)CC1 | 21.6
CCOc1ccc(N(C(C)C(=O)NN=C2CCCCCCC2)S(C)(=O)=O)cc1 (stereo not given) | 4.1
COc1cc(Cl)c(C)cc1NC(=O)CSc1nnc(CCC(=O)O)c(=O)[nH]1 | -0.3
N#C/C(=C\c1ccc(F)c(F)c1)C(=O)NC1CCCCC1 | -5.6
COCCn1c(SCC(=O)NNC(=O)c2ccccc2)nc2ccccc2c1=O | 4.1
COc1ccc(-c2csc(Nc3ccccn3)n2)cc1 | 6.6
CCCC(=O)Nc1ccc(NC(=S)NC(=O)c2cccs2)cc1 | 17.9
CCN(c1ccccc1)S(=O)(=O)c1cccc(C(=O)OCc2nc3sc(C)c(C)c3c(=O)[nH]2)c1 | -2.7
Cc1ccc(C(C)C)cc1OCCN1CCCC1 | 18.8
CCCCNC(=S)NNC(=O)c1ccncc1 | 13.7
OCCC1CN(Cc2cccn2-c2cccnc2)CCN1CCc1ccccc1 (stereo not given) | 26.8
Cc1ccccc1-n1nc2c(c1NC(=O)/C=C\c1ccc3c(c1)OCO3)CSC2 | 7.9
Cc1ccc(C(C(=O)NC(C)(C)C)N(Cc2cccs2)C(=O)c2ccc3c(c2)OCCO3)cc1 (stereo not given) | -11.2
CCOC(=O)c1c(C)[nH]c(N=Nc2cc(C(=O)O)cc(C(=O)O)c2)c1C | 19.8
NC(=O)c1ccc(-n2nnnc2SCC(=O)c2ccc(O)c(O)c2)cc1 | 10.7
CSc1nc2ncc3c(n2n1)CC(C)(C)CC3=O | 6.8
Cc1cc(C)c(OCCN2CC(C)OC(C)C2)c(Br)c1 (stereo not given) | -0.9
CN1CCN(c2oc(/C=C/c3ccccc3)nc2C#N)CC1 | 30.5
O=C(NCc1csc(-c2cccs2)n1)c1ccsc1 | 14.3
O=C(NNC(=O)c1ccccc1[N+](=O)[O-])c1ccccc1[N+](=O)[O-] | 5.4
OC(COc1ccc(CN2CCCCO2)cc1)CN1CCCCC1 (stereo not given) | 8.6
O=C(O)CCN(Cc1ccccc1)S(=O)(=O)c1ccc(Cl)cc1F | 9.4
Cc1ccc(-c2cc(-c3c(C)nn(C)c(=O)c3N)[nH]n2)cc1 | 9.3
CC1=C(C(=O)Nc2ccc(C)cc2C)C(c2cccc(Cl)c2)n2nc(C(=O)OC(C)C)nc2N1 (stereo not given) | 14.5
O=C(Cn1cnc2ccccc2c1=O)NCC(=O)N1CCOCC1 | 16.0
N=C1/C(=C\c2ccc(OC(=O)c3ccco3)cc2)C(=O)N=C2SC=NN12 | 18.8
COc1ccccc1C(CCNS(=O)(=O)c1ccc(C)cc1)c1ccco1 (stereo not given) | 7.3
CS(=O)(=O)N(Cc1ccccc1)c1ccc(C(=O)NN=C2CCCCCC2)cc1 | 20.2
S=C(N/N=C1\C2CN3CCN(C2)CC1(c1ccccc1)C3)Nc1ccccc1 | 17.5
Cc1ccc(CN2CC(C(=O)Nc3ccc(F)c([N+](=O)[O-])c3)CC2=O)cc1 (stereo not given) | 9.3

# A second format for part of the listing above.
mol: COc1ccccc1/C=C/C(=O)Nc1ccc2c(c1)OCCO2
  Biofilm kill mix: 18.4

mol: S=C(N/N=C1\C2CN3CCN(C2)CC1(c1ccccc1)C3)Nc1ccccc1
  Biofilm kill mix: 17.5

# (list continues)
canonical_smiles | Biofilm kill mix
O=S(=O)(c1cccs1)N1CN(C2CCCC2)c2nc3ccccc3nc21 | 14.3
COc1ccc(C2C3=C(NCCN=C3c3ccccc3)C(=O)N2c2ccccc2)c(OC)c1 (stereo not given) | 14.8
COc1ccc(CCN2C(=O)CC(C(N)=O)SC2=Nc2ccc(F)cc2)cc1OC (stereo not given) | 8.0
NS(=O)(=O)c1ccc(-c2ccc(/C=N/NC(=O)c3ccc([N+](=O)[O-])cc3)o2)cc1 | 15.9
Cn1c(=O)n(Cc2ccccc2Cl)c2ccccc21 | 10.1
N#Cc1ccc(-c2cn(-c3ccccc3)c3[n+]2CCCS3)cc1 | 13.0
Nc1c(C(=O)N/N=C/c2ccc(OCc3ccccc3)cc2)cnn1-c1ccccc1 | 15.1
CCn1ncc(/C=C2/SC(=S)NC2=O)c1C | 18.8
Cc1ccc(OC(=O)c2sc3ncn(C)c(=O)c3c2C)cc1 | 16.5
CC(O/N=C/c1ccc(OC(F)F)cc1)C(=O)Nc1cccc(S(=O)(=O)N2CCOCC2)c1 (stereo not given) | 12.0
Cc1cc(S(=O)(=O)N(Cc2ccccc2F)C2CC2)ccc1-n1cnnn1 | 19.5
CC(C)c1ccc(N)c(S(=O)(=O)O)c1 | 22.3
COc1ccc(Cn2c(CCC(=O)Nc3ccccc3OC)nc3cccnc32)cc1 | 23.6
Cc1ccc(N2CC(O)(c3cccs3)[N+]3=C2CCCC3)cc1 (stereo not given) | 8.2
CCC(C)N(C)Cc1cccc(C2(O)CCN(S(=O)(=O)c3ccc(F)c(C)c3)CC2)c1 (stereo not given) | 7.2
COc1ccc(NS(=O)(=O)c2cn(C)c(=O)n(C)c2=O)cc1 | 13.2
O=C(CCc1nnc(CCCCc2ccccc2)o1)NCCN1CCOC1=O | 17.1
O=C1OCC=C1NNC(=O)c1cccnc1 | 12.4
Cc1ccc(NC(=O)C2CCC(CNc3c(N4CCC(C)CC4)c(=O)c3=O)CC2)cc1F (stereo not given) | 9.0
CCc1nc(SCC(=O)c2ccccc2)c2c(=O)n(C)c(=O)n(C)c2n1 | 16.8
CC1(C)SC(=S)N(/N=C/c2ccccc2O)C1N(O)C(=O)Nc1ccccc1 (stereo not given) | 21.5
CN(CC(=O)NC(=O)NCc1ccccc1)Cc1ccc(Cl)c(Cl)c1 | 9.0
Cc1ccc(CNC(=O)c2ccc(N3CCc4ccccc43)c([N+](=O)[O-])c2)cc1 | 9.9
CC(/C=N/NC(=O)c1nnn(-c2nonc2N)c1CN(C)C)=C\c1ccco1 | 19.7

# Next part; it opens with the five that closed the last part.
canonical_smiles | Biofilm kill mix
CCc1nc(SCC(=O)c2ccccc2)c2c(=O)n(C)c(=O)n(C)c2n1 | 16.8
CC1(C)SC(=S)N(/N=C/c2ccccc2O)C1N(O)C(=O)Nc1ccccc1 (stereo not given) | 21.5
CN(CC(=O)NC(=O)NCc1ccccc1)Cc1ccc(Cl)c(Cl)c1 | 9.0
Cc1ccc(CNC(=O)c2ccc(N3CCc4ccccc43)c([N+](=O)[O-])c2)cc1 | 9.9
CC(/C=N/NC(=O)c1nnn(-c2nonc2N)c1CN(C)C)=C\c1ccco1 | 19.7
Cn1c(CO)cnc1S(=O)(=O)Cc1ccc(Cl)cc1 | 24.2
O=C(CSc1ccc(Cl)cc1)Nc1ccc(C2SCCS2)cc1 | 17.7
C[C@@H]1CC=C[C@H]2[C@H]1C(=O)N(Cc1ccccc1)[C@H]2c1ccoc1 | 17.4
O=C(c1cccc2ccccc12)C1CCCN(C(=O)CCN2CCCO2)C1 (stereo not given) | 11.5
Cc1cccc(C)c1NC(=O)COC(=O)c1ccc2[nH]c3c(c2c1)CCCC3 | 14.9
CCOC(=O)CC(NC(=O)c1cc2ccccc2oc1=O)c1cccc([N+](=O)[O-])c1 (stereo not given) | 21.3
O=C(CN(c1ccccn1)S(=O)(=O)c1ccc(F)cc1)Nc1ccccc1 | 15.6
Cn1c(=O)c2c(nc(Br)n2C/C=N/NC(N)=S)n(C)c1=O | 19.1
O=C(O)c1ccccc1-c1nc2ccccc2n1-c1ccccc1 | 3.9
O=C(Oc1ccc(Br)cc1C(=S)N1CCCC1)c1ccccc1F | 7.0
O=C(O)CC(NNC(=O)c1ccccc1)C(=O)Nc1cccc([N+](=O)[O-])c1 (stereo not given) | 13.6
COc1ccccc1OCC(=O)OCn1c(SC)nnc(C)c1=O | 8.0
O=C(O)Cc1csc(-c2cccc(F)c2)n1 | 7.9
CC(=O)Nc1nc(SCC(=O)NCc2ccc(F)cc2)[nH]c(=O)c1NC(=O)c1cccs1 | 7.1
Cc1cnc(C(=O)Nc2cc(S(=O)(=O)N3CCOCC3)ccc2N2CCN(C)CC2)cn1 | 13.8
Cn1cnnc1SCC(=O)Nc1ccc2nc(SCc3ccccc3Cl)sc2c1 | 14.5
COc1ccc(NC(=O)CCSCCc2ccccn2)cc1OC | 2.4
O=C(CNC(=O)c1ccccc1Cl)OCC(=O)N1CCc2ccccc21 | -3.3
COc1ccc(NC(=O)C(Cc2ccccc2)n2cccc2)cc1OC (stereo not given) | 17.0
CCOC(=O)NC(=O)C(=CNc1ccccc1OC)C(=O)NC(=O)OCC | 15.8
CNC(=S)N(Cc1ccc(Cl)cc1)Cc1cccs1 | 18.9
O=C(O)C1Cc2ccccc2CN1C(=O)COc1ccc(Cl)cc1Cl (stereo not given) | 3.6
CCCn1c(SCC(=O)N2CCCC(C)C2)nnc1-c1cccnc1 (stereo not given) | 12.6
Cc1ccc(NC(=O)C(NCc2ccccn2)c2ccccc2)cc1 (stereo not given) | 26.4
CCc1nc2ccccc2c(C(=O)OCC(=O)NC(=O)c2cccn2C)c1C | 19.8
Cc1cc(C(=O)OCC(=O)Nc2ccc(S(N)(=O)=O)cc2)c2ccccc2n1 | -16.4
COc1ccc(-c2csc(-c3ccc(C(=O)O)cc3)n2)cc1 | 2.7
CCOn1c(=O)c(=O)n(OC)c2ccccc21 | 15.5
COc1cc(CNCC(C)C)cc(Br)c1OCC(=O)Nc1ccccc1 | 8.2
CCn1c(C)nc2cc(C#N)ccc21 | 10.1
COc1cccc(NC(=S)NN=C2CCC(C(C)(C)C)CC2)c1 (stereo not given) | 22.8
CCCCCC(O)CCC(=O)NNC1=CC(=O)CC(C)(C)C1 (stereo not given) | 10.3
Cc1ccc(S(=O)(=O)N2CCC(C(=O)NNC(=O)c3ccc(F)cc3)CC2)cc1 | 9.8
O=C(Nc1ccc2c(c1)OCCO2)c1coc2ccccc2c1=O | 6.7
CCCS(=O)(=O)Nc1ccc2cn[nH]c2c1 | -0.2
COCC(=O)N=Nc1c(O)[nH]c2ccccc12 | -10.0
O=C(O)c1ccc(Cn2cnc3sc4c(c3c2=O)CCCC4)cc1 | -5.4
O=C(COc1ccccc1C(=O)NCC1CCCO1)Nc1ccc(Cl)cc1Cl (stereo not given) | 8.4
Cc1cccc(/C=N/c2sc3c(c2C(=O)OC(C)(C)C)CCN(C)C3)c1O | 17.7
S=C(NCc1ccccc1)NC1CCCc2ccccc21 (stereo not given) | 1.1
Cc1cc(NC(=O)CCC(=O)N(c2ccc(F)cc2)C(C(=O)NC2CCCC2)c2ccc(C)o2)no1 (stereo not given) | 35.2
COc1ccc(N2CCN(CC(=O)Nc3cccc(S(=O)(=O)N4CCOCC4)c3)CC2)cc1 | 0.2
S=C(NCCc1ccccc1)Nc1c(Cl)cccc1Cl | 15.3

# 2 records drawn at random from the list so far:
canonical_smiles | Biofilm kill mix
CCc1nc(SCC(=O)c2ccccc2)c2c(=O)n(C)c(=O)n(C)c2n1 | 16.8
CCCCN1C(=O)/C(=C(/C#N)C(=O)N2CCCC2)c2ccccc21 | 19.8

# Screening data deposited in PubChem by PCMD.
